# Screens from PubChem.
# AID504770: growth inhibition of E. coli YBA685, primary screen, V. cholerae RctB inhibitors; E. coli YBA685 rctB-dependent plasmid, OD600 growth, 3 h; hits give low values; z-score (no concentration beside the values); 0.27% of 130,000 active; AID 504770, 2011;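 active = z-score under -2 on both plates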;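 also: wells of about 30 µL received 100 nL stock; score is relative to mean and SD of the test wells; the first replicate is given; strong numbers were not always called active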
# Ba CapD inh: Bacillus anthracis CapD inhibitors, primary screen, biochemical, fluorescence intensity; z-score (no concentration beside the values); CapD gamma-glutamyltranspeptidase (Bacillus anthracis Ames Ancestor); purified CapD enzyme, fluorescence intensity read-out; hits give low values; some hits fall short of the stated cut; AID 492967, 2010; 0.23% of 140,000 active;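 active = z-score under -4 in either of two replicates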;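 also: stock transfer was 100 nL into about 40 µL; score is relative to mean and spread of the plate; one replicate is shown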
# * hit, by the source's call; · = not tested or not shown; & = joins results of further samples. Random draw from the library, and some 0.39% of all compounds hit somewhere here.
SMILES,AID504770,Ba CapD inh
Cc1cc(C)cc(OC(=O)c2ccc(Oc3cc(Cl)cc(Cl)c3)o2)c1,-0.4,0.065
O=C1CC(C(=O)Nc2ccccc2)N=C(N2CCc3ccccc3C2)N1 (configuration not stated),0.3,·
CCc1nc(N2CCC(C)CC2)c(C#N)c2c1COC(C)(C)C2,-1.2,13.6
Cc1c(Cl)cccc1NC(=O)CSc1nc2[nH]ncc2c(=O)n1-c1ccc(Br)cc1,·,-0.47
COC(=O)CCc1nc2ccccc2[nH]1,-0.2,·
CC(C)(C)c1ccc(C(=O)N(Cc2ccc(S(C)(=O)=O)cc2)c2ccccn2)cc1,·,-0.405
O=C(Cn1[nH]c(=O)ccc1=O)OCc1ncc(-c2cccc(Cl)c2)o1,-0.4,·
CCC(=O)Nc1ccc(C(=O)CN2C(=O)C3CC=CCC3C2=O)cc1 (configuration not stated),-0.4,·
O=C(NC(=O)c1ccccc1O)c1cccs1,-0.35,-1.76
O=C(O)CC1SC(c2cccc(-n3cccc3)c2)=NC1=O (configuration not stated),-0.45,0.35
Cc1sc(-n2cccc2)c(C(=O)NC(C)CCc2ccccc2)c1C (configuration not stated),1.25,0.295
S=C(c1cccs1)N1CCCC1,0.8,-0.345
COC(=O)C1=CN(CCC23CC4CC(CC(C4)C2)C3)C=C(C(=O)OC)C1c1cccc([N+](=O)[O-])c1,·,-0.2
CC12CC3(C)CC(C)(C1)CC(CN=Cc1ccc(O)cc1)(C2)C3,0.35,0.31
N#C/C(=C(/O)C(F)(F)F)c1nc2ccccc2s1,-0.45,-1.08
COC(=O)c1ccc(NC(=O)CSc2nnc(Cn3c(=O)sc4ccccc43)n2C)cc1,-0.7,·
CCc1ccc(Nc2c3c(nc4ccccc24)CCCC3)cc1,-0.5,0.885
CCn1cc2nc(SCC(=O)N3CCCC3)n(Cc3ccc(C)cc3)c(=O)c2n1,0.05,0.76
CC(C)COC(=O)C(C)Oc1ccc2c(=O)c(-c3ccccc3)coc2c1 (configuration not stated),-0.2,-0.06
O=C(CCCn1c(=O)c2cccn2c2ccccc21)NCc1ccccc1,-1.55,1.29
Oc1ccccc1-c1nc2c3c(-c4ccccc4)c(-c4ccccc4)oc3ncn2n1,·,5.82
O=C(Nc1ccccc1)N1CCCN(c2ccc(C(F)(F)F)cn2)CC1,2.45,5.62
C/C(=N\Nc1nnc(C)c(=O)[nH]1)C(=O)O,-0.7,-0.255
COc1ccc(CCN2C(=S)SC(C)(C)C2N(O)C(=O)NC(C)C)cc1OC (configuration not stated),·,6.24
O=C1CSC(c2cc3c(cc2Br)OCO3)N1c1cc(Cl)ccc1O (configuration not stated),·,0.3
# (list continues)
SMILES,AID504770,Ba CapD inh
Cc1cc(-n2c(C)cc(C(=O)COC(=O)/C=C/c3ccccc3)c2C)no1,0.15,·
CN1C(=O)/C(=C2\SC(=S)N(C)C2=O)SC1=S,2.45,-0.315
CC(C)(C)c1ccc(Cn2c(NC(=O)c3ccccc3)nc3ccccc32)cc1,·,4.78
O=C(CC1Sc2ncnn2C1=O)Nc1ccc(Br)cc1 (configuration not stated),1.65,0.335
C=CCN1C(=O)/C(=C/c2ccc(OCC#N)c(OC)c2)SC1=S,1.35,0.255
COc1ccccc1N(CCCN1C(=O)c2cccc3cccc(c23)C1=O)C(=O)C(C)(C)C,·,0.855
CC(C)(C(N)=O)/[N+]([O-])=C\c1ccccc1,-0.2,0.19
CC1(C)CC(=O)C(C2C3=C(CC(C)(C)CC3=O)Oc3ccccc32)=C(O)C1 (configuration not stated),1.75,-0.13
Clc1cc(Br)cc(Cl)c1-n1cccc1,·,-0.005
CNC(=O)c1cc2c(=O)n3cccc(C)c3nc2n1C,-0.4,63.8
Cc1ccc2nc(-c3ccc(NC(=O)C(C)(C)C)cc3)sc2c1,·,83.9
O=C(COC(=O)c1ccc(S(=O)(=O)N2CCCCC2)cc1)NC1CCCCC1,-0.6,·
c1ccc(CN2CN(Cc3ccccc3)c3nc4ccccc4n3C2)cc1,-0.25,-0.06
Cc1cc(C)c2c(-n3cccc3)c(C(=O)NC3=NCCS3)sc2n1,0.45,·
Clc1ccc(-c2[nH]c(-c3ccc(C#Cc4ccccc4)cc3)nc2-c2ccccc2)cc1,·,-0.05
O=C(c1ccccc1)c1cc(Cl)ccc1NC(=O)C(Cl)Cl,·,-0.945
Cc1cccc(-n2sc3c(c2=S)-c2ccccc2NC3(C)C)c1C,·,-0.885
COc1ccc(NC(=O)c2sc3nc(-c4cccs4)ccc3c2N)cc1,·,-1.04
CCOC(=O)C1=C(N)n2c(s/c(=C/c3ccccc3F)c2=O)=C(C(=O)OCC)C1c1ccccc1F (configuration not stated),·,-0.6
O=C(NCc1ccc(Cl)cc1)c1cc2sccc2nc1C(F)(F)F,·,-0.175
O=C(COC(=O)C1CC(=O)N(Cc2ccccc2)C1)Nc1ccc2c(c1)OCO2 (configuration not stated),0.55,·
CC(C)C(NS(=O)(=O)c1cccs1)C(=O)NCc1ccccc1F (configuration not stated),1.15,-0.82
c1ccc(-c2nc3c([nH]2)CCc2nonc2-3)cc1,-0.7,0.585
Cc1cc(=O)c2cc(Cl)ccc2s1,-0.45,3.4
Cc1nc2c(cc(OCc3c(C)noc3C)c3ccsc32)s1,0.5,·

# Part of the list above, with two lines to a compound:
# Values run as follows: AID504770 | Ba CapD inh
O=C(COC(=O)c1ccc(S(=O)(=O)N2CCCCC2)cc1)NC1CCCCC1
  -0.6 | ·
CC(C)(C(N)=O)/[N+]([O-])=C\c1ccccc1
  -0.2 | 0.19
COc1ccccc1N(CCCN1C(=O)c2cccc3cccc(c23)C1=O)C(=O)C(C)(C)C
  · | 0.855
O=C(CC1Sc2ncnn2C1=O)Nc1ccc(Br)cc1 (configuration not stated)
  1.65 | 0.335
C=CCN1C(=O)/C(=C/c2ccc(OCC#N)c(OC)c2)SC1=S
  1.35 | 0.255
Cc1cccc(-n2sc3c(c2=S)-c2ccccc2NC3(C)C)c1C
  · | -0.885

# Rewritten with values under each structure: part of the list above.
# Order of results: AID504770	Ba CapD inh
> COC(=O)C1=CN(CCC23CC4CC(CC(C4)C2)C3)C=C(C(=O)OC)C1c1cccc([N+](=O)[O-])c1
 : ·	-0.2
> CC12CC3(C)CC(C)(C1)CC(CN=Cc1ccc(O)cc1)(C2)C3
 : 0.35	0.31
> N#C/C(=C(/O)C(F)(F)F)c1nc2ccccc2s1
 : -0.45	-1.08
> COC(=O)c1ccc(NC(=O)CSc2nnc(Cn3c(=O)sc4ccccc43)n2C)cc1
 : -0.7	·
> CCc1ccc(Nc2c3c(nc4ccccc24)CCCC3)cc1
 : -0.5	0.885

# (further entries)
SMILES,AID504770,Ba CapD inh
O=C1CCCC2=C1C(c1ccc(OCc3ccc(C(=O)O)cc3)cc1)C1=C(CCCC1=O)O2,-0.15,-0.01
C[C@]12CCC(=O)C=C1CCC1C2CC[C@@]2(C)C1CC[C@@]2(O)CC#N (some centres not stated),-0.5,-0.08
CCN(Cc1ccccc1)C(=O)C1CCN(Cc2ccc(SC)cc2)CC1,0.6,0.185
CC1=C(C(=O)Nc2cc(Cl)ccc2C(=O)NCc2ccc(OC(C)C)cc2)SCCO1,0.9,0.115
COc1ccc(OCC(O)CNCCNc2ncccc2C(F)(F)F)cc1 (configuration not stated),·,-0.96
CC(C)(C)C(=O)N1CCN(c2nc(-c3ccccc3)c(S(C)(=O)=O)cc2C#N)CC1,·,-0.6
CCCc1cc(=O)c2ccc(OC/C(C)=N/O)cc2o1,0.25,1.09
CC1(N)CCS(=O)(=O)C1 (configuration not stated),-0.4,·
O=C(Nc1ccc(Br)cc1)c1ccc(F)c(S(=O)(=O)N2CCN(c3ccccc3F)CC2)c1,·,0.965
Nn1c(Nc2ccccc2)nc2sc3c(c2c1=O)CCCC3,-0.5,·
Cc1noc(C)c1CSc1ccccc1C(=O)NC(C)c1ccc(-n2ccnc2)cc1 (configuration not stated),-0.25,·
COc1ccccc1CNC(=O)CSc1ccccc1,0.2,0.28
CN1CCN(C(=O)c2ccc(-c3ccccc3)cc2)CC1,-0.8,·
CN(C)c1cc(NC(=O)Nc2ccccc2)c2ccccc2n1,1.3,60.6
CNC(=O)Nc1ccc(Cl)cc1,-0.7,·
c1cc(-c2cn[nH]c2)ncn1,·,0.41
COc1cc(OC)cc(-c2cc(NC(C)=O)n[nH]2)c1,-1.4,0.15
COC(=O)c1ccccc1NC(=O)/C=C/c1ccc(C)o1,0.45,·
CCOC(=O)c1sc2ncnc(NCc3ccc(F)cc3)c2c1C,·,71.6
CC(=O)Nc1ccc(S(=O)(=O)Nc2cc(Cl)cc(Cl)c2)cc1,·,-0.41
Fc1ccc(OCOc2ccc(F)cc2)cc1,·,0.11
Cc1oc(-c2ccccc2)nc1CC(=O)N1CCC(C(O)(c2ccccc2)c2ccccc2)CC1,·,0.45
C[C@H]1O[C@@H](O[C@H]2[C@@H](O)C[C@H](O[C@H]3[C@@H](O)C[C@H](O[C@H]4CC[C@@]5(C)[C@H](CC[C@@H]6[C@@H]5C[C@@H](O)[C@]5(C)[C@@H](C7=CC(=O)OC7)CC[C@]65O)C4)O[C@@H]3C)O[C@@H]2C)C[C@H](O)[C@@H]1O,·,0.54
CCCc1nc2ccccc2n1C(C)C(=O)O (configuration not stated),0.85,·
CC(=O)Oc1ccc(NC(=O)CC2SC(=Nc3ccccc3)N(c3ccccc3)C2=O)cc1 (configuration not stated),·,0.23
# New compounds follow
SMILES,AID504770,Ba CapD inh
CCSc1nc2ccccc2c(=O)n1C1CCOC(C)(C)C1 (configuration not stated),-1.1,1.2
COC(=O)c1ccc(CCl)o1,-1.05,-1
COc1ccc(Cl)cc1NC(=O)CN(C)Cc1nc2ccsc2c(=O)[nH]1,0.3,·
O=C1C2C3c4ccccc4C(C=Nc4ccccc4)(c4ccccc43)C2C(=O)N1c1ccccc1 (configuration not stated),·,0
COc1ccc(OC)c(S(N)(=O)=O)c1,0.4,0.26
CCc1cc(Br)ccc1S(=O)(=O)N1CCN(CCN2CCOCC2)CC1,·,0.76
COc1ccc(-c2ccc(CCC(=O)O)n2-c2ccc(C(=O)O)cc2)cc1,-0.15,0.01
O=C(NCc1ccc2c(c1)OCO2)NC12CC3CC(CC(C3)C1)C2,1.15,·
COc1ccc2nc(NC(=O)c3cccs3)sc2c1,1.5,4.63
O=C(Nc1ccccc1O)c1ccccn1,-1.5,·
Cc1ccccc1Cn1c(=O)n(CCCS(=O)(=O)C2CCCCC2)c(=O)c2ccccc21,-0.2,-0.315
COC(=O)CN1C(=O)C2(C(C#N)=C(N)Oc3n[nH]c(-c4ccc(OC)cc4)c32)c2ccccc21 (configuration not stated),·,0.9
CCc1ccc(OCCCC(=O)Nc2ccc3c(c2)OCCO3)cc1,·,-0.415
COc1cc(O)sc1C=Nc1ccc(Cl)cc1,-0.55,-1.35
COc1cc(CN2CCC(NC(=O)Cc3nc(-c4ccccc4)oc3C)C2)cc2c1OCO2 (configuration not stated),·,-0.145
CCN(CC)S(=O)(=O)c1ccc(Nc2ccc(OC)cc2OC)nc1,-0.5,·
Cc1ccc(S(=O)(=O)c2cnc(-c3ccccn3)nc2-c2cccnc2)cc1,·,-0.49
O=C(O)c1cnc2ccccn2c1=O,0.85,·
CCOc1ccc(N/C(N)=N/c2nc(C)cc(C(F)(F)F)n2)cc1,1.1,-0.615
CCN(CC)C(=O)C1CCCN(C2=NS(=O)(=O)c3ccccc32)C1 (configuration not stated),-2.8,·
CN1CCN(C(=O)/C(=C/c2cn(C)c3ccccc23)NC(=O)c2ccco2)CC1,1.1,-1.32
O=C(NNc1nc2c(F)cccc2s1)c1nc2ccccc2s1,0.45,·
COC(=O)c1ccc(C(=O)Nc2ccccc2-c2nc3ccccc3[nH]2)cc1,1.85&0.3,0.265&4.31
O=C(COc1ccc(Br)cc1)NCc1ccco1,-1,-0.625
CC(=O)Nc1ccc(C(=O)NCCN2CCOCC2)cc1,0.9,·
# Further structures:
SMILES,AID504770,Ba CapD inh
CC(C)(C)NP(C)(=O)C(C)(C)C (configuration not stated),0.2,0.06
CN(C)c1nc(OCCOC(=O)COc2ccc(Cl)cc2Cl)nc(N(C)C)n1,·,0.055
Cc1nc2ccccc2n1CCNC(=O)c1ccc(S(=O)(=O)N(C)C)cc1,-1.55,·
COC(=O)c1sc(NC(=O)CSc2ncnc3sc(C)c(C)c23)c(C(=O)OC)c1C,·,-0.45
CC(NC(=O)c1ccc(F)cc1)C(=O)O (configuration not stated),0.75,·
O=C(NC1CCCCC1)C1CCN(S(=O)(=O)c2ccccc2)CC1,1.95,-0.915
Cc1ccc(-n2[nH]c(=O)c(N=O)c2O)cc1C,-0.3,-0.125
C=CCNC(=O)Nc1ccc2oc(C)nc2c1,-0.4,·
O=C(NCC1CCCCC1)c1cn[nH]c1,·,-0.66
O=C(O)CN1C(=O)/C(=C/c2cccc(Oc3ccc([N+](=O)[O-])cc3[N+](=O)[O-])c2)SC1=S,·,-0.795
O=C(O)c1nccnc1C(=O)O,·,-0.795
O=C(N/N=C/c1ccco1)c1ccccc1,-0.7,·
COC(=O)CSc1nc2sc3c(c2c(=O)n1-c1ccc(OC)cc1)CC(C)(C)OC3,·,-0.36
COc1ccc(C2=NN(S(=O)(=O)c3ccc(C)cc3)C(c3ccccc3OC)C2)cc1OC (configuration not stated),·,0.105
C=CCN1C(=O)C(Cc2ccc(SC(F)F)cc2)SC1=Nc1ccc(C(=O)O)cc1 (configuration not stated),·,0.255
Cc1ccc(C(=O)Nc2sc3c(c2C(=O)N(C)C)CCCCC3)cc1,-0.7,-0.14
O=C(CSc1ncn[nH]1)NCCOc1ccccc1,-6.3,·
Nc1nc(Cn2cncn2)nc(N)c1Cc1ccc(Cl)cc1Cl,·,1.04
O=C(CN1C(=O)S/C(=C\c2ccc(Cl)cc2)C1=O)Nc1cccnc1,-2.25,-0.445
O=C(COc1ccc(Cl)cc1)Nc1c(-c2ccccc2)nc2sccn12,0.3,·
Clc1cccc(Nc2nc3ccccc3s2)c1,·,-0.53
